Screening data from PubChem.
RE007 growth inh: less growth of the S. pombe RE007 Vpr strain | S. pombe RE007 Vpr strain, BacTiter-Glo ATP luminescence, 24 h; control for the full effect not named in the record | 360,000 compounds, 0.21% hits | AID 651644 | Potency, µM (doses to about 92.2 µM), inactives show top-dose activity change, negative = less growth; active = well fitted falling curve with a large enough effect; inconclusive = small, poorly fitted or top-dose-only effect; inactive = no such curve, though single readings can be large or run the other way;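 further: on the % scale 0 is the no-effect control and ±100 the full control effect; nearly all actives have a fitted effect of over 50% in size; the assay follows cell death caused by Vpr and the record does not say whether a fall means rescue or toxicity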
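Fission yeast strain RE007, carrying one chromosomally integrated HIV-1 vpr copy, was seeded at OD 0.01 in PMG+AL medium with 23 nL pinned compound. After 24 h at 30 °C and 99% humidity, viability was read by BacTiter-Glo luminescence.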
SARS PLpro yeast: blocks SARS-CoV papain-like protease in a yeast assay. S. cerevisiae expressing SARS-CoV PLpro, growth rescue; control for the full effect not named in the record. Potency, µM (series often up to 32.9 µM), without a hit: at the top dose activity, positive = growth rescue. 330,000 compounds, 0.19% hits. AID 485353; active means well fitted rising curve with a large enough effect; inconclusive means small, poorly fitted or top-dose-only effect; inactive means no such curve, though single readings can be large or run the other way; further: 0% is about no effect; nearly all actives have a fitted effect of over 55% in size; growth read by luminescence after 48 h
2A StopGo: FMDV 2A StopGo reporter, luciferase signal | Potency, µM (titrated, usually from 57.9 µM), for the others: at the highest dose signal change, negative = less light | human cells with a luciferase reporter of 2A StopGo recoding; control for the full effect not named in the record | 410,000 compounds, 1.2% hits; active = well fitted falling curve with a large enough effect; inconclusive = small, poorly fitted or top-dose-only effect; inactive = no such curve, though single readings can be large or run the other way; tested in HEK293T cells; further: on the % scale 0 is the no-effect control and ±100 the full control effect; nearly all actives have a fitted effect of over 45% in size; luciferase light after 4 h
An asterisk follows results filed as active; ? = inconclusive; [ ] = dose if it differs, or a comment. Potency means the concentration at half of the fitted maximal effect.

SMILES	RE007 growth inh	SARS PLpro yeast	2A StopGo
CNS(=O)(=O)c1cccc(C(=O)OCC(=O)N2c3ccccc3NC(=O)C2(C)C)c1	11%	8%	-4%
COc1ccc(CCNC(=O)COC(=O)c2ccc(F)c(S(=O)(=O)N3CCOCC3)c2)cc1	14%	0%	-16%
CC1CCCCC1NC(=O)COC(=O)CCC(=O)c1cccs1 (stereo not drawn)	0%	-3%	-22%
Cc1ccccc1SCC(=O)OCC(=O)N1CC(=O)Nc2ccccc21	2%	0%	-19%
Cc1nc(N2CCCCC2C)c2c(C)c(C(=O)Nc3ccccc3C(F)(F)F)sc2n1 (stereo not drawn)	0%	-21%	-3%
Cc1ccc(NC(=O)C(C)Sc2nnc(C3CC3)n2C2CC2)cc1S(=O)(=O)N1CCOCC1 (stereo not drawn)	3%	6%	19%
CCN1C(=O)[C@H]2[C@@H](c3ccc(-c4ccccc4)c(OC)c3)N[C@@](CC(C)C)(C(=O)OC)[C@H]2C1=O	-3%	-8%	0%
C=CCC[C@H](Cc1ccc(F)cc1)C(=O)OC[C@@H](C)NC(=O)[C@H](CC=C)CC(=O)N(CCO)Cc1ccccc1	-5%	-1%	?
CCCN1C(=O)/C(=C/c2ccc(N3CCOCC3)cc2)NC1=S	3%	8%	-16%
Cc1cccc(C(=O)N[C@@H](C)C(=O)N2CCN(c3ncccn3)CC2)c1	3%	0%	-7%

Filtered by structure, the compounds so far containing a carbonyl joined to an NH by a bond outside any ring.
SMILES	RE007 growth inh	SARS PLpro yeast	2A StopGo
COc1ccc(CCNC(=O)COC(=O)c2ccc(F)c(S(=O)(=O)N3CCOCC3)c2)cc1	14%	0%	-16%
CC1CCCCC1NC(=O)COC(=O)CCC(=O)c1cccs1 (stereo not drawn)	0%	-3%	-22%
Cc1nc(N2CCCCC2C)c2c(C)c(C(=O)Nc3ccccc3C(F)(F)F)sc2n1 (stereo not drawn)	0%	-21%	-3%
Cc1ccc(NC(=O)C(C)Sc2nnc(C3CC3)n2C2CC2)cc1S(=O)(=O)N1CCOCC1 (stereo not drawn)	3%	6%	19%
C=CCC[C@H](Cc1ccc(F)cc1)C(=O)OC[C@@H](C)NC(=O)[C@H](CC=C)CC(=O)N(CCO)Cc1ccccc1	-5%	-1%	?
Cc1cccc(C(=O)N[C@@H](C)C(=O)N2CCN(c3ncccn3)CC2)c1	3%	0%	-7%

Following part:
SMILES	RE007 growth inh	SARS PLpro yeast	2A StopGo
C#CCOCCOCCOCCNc1nc(N2CCN(C(=O)CCCCCCCCCCNC(=O)[C@H](CCCCN)n3cc(CCO)nn3)CC2)nc(N2CCN(C(=O)CCCCCCCCCCNC(=O)[C@H](CCCCN)n3cc(CCO)nn3)CC2)n1	19%	0%	-11%
CC(C)(C)OC(=O)NOCC(=O)N(CC(=O)c1ccccc1)Cc1ccccc1	-10%	-15%	-11%
Cc1cc(C)c(C)c(S(=O)(=O)N2CCN(C(=O)CNC(=O)c3ccco3)CC2)c1C	26%	8%	0%
COc1ccc(Cl)cc1NC(=O)CN(C)C(=O)c1cccc2cccnc12	2%	-3%	-14%
CCOC(=O)CN1CCC(c2ccccc2)CC1	-19%	-6%	9%
COc1ccc(NC(=O)Nc2cccc3c2O[C@H](CN(C)C(=O)Nc2ccc(C(F)(F)F)cc2)[C@@H](C)CN([C@H](C)CO)C3=O)cc1	-2%	1%	7%
COc1ccc(CNC(=O)c2cc(C3CC3)nc3c2cnn3C(C)C)cc1OC	1%	-2%	?
COC(=O)c1ccc(NC(=O)COC(=O)COc2cccc3c2OC(C)(C)C3)cc1	4%	-6%	-19%
COc1ccc(Cl)cc1NC(=O)COC(=O)c1c(-c2ccccc2)noc1C	-11%	-1%	?
Cc1cnc(NC(=O)c2ccc(-c3ccc([N+](=O)[O-])cc3)o2)s1	-8%	-4%	-15%
CC(C)=C1Cc2ccccc2C1=O	-9%	-1%	16%
Cc1sc2ncnc(SCC(=O)N3CCOCC3)c2c1C	4%	4%	8%
Nc1nc(-c2ccc(Cl)cc2)c(S(=O)(=O)c2ccccc2)s1	2%	-3%	-25%
COCCCNC(=O)/C=C1\Sc2ccccc2N(Cc2ccccc2F)C1=O	-9%	0%	9%
Cc1ccc(S(=O)(=O)CCC(=O)NC2CCCCC2)cc1	1%	0%	-20%
Cc1ccc(S(=O)(=O)N2CC(C(=O)O)=CC[C@H]2c2ccc3c(c2)OCO3)cc1	10%	0%	-9%
CCOC(=O)c1[nH]cnc1C(=O)N1CCC(C)CC1	10%	3%	-3%
O=C(NCCc1ccc(F)cc1)c1ccc(S(=O)(=O)N2CCCC2)cc1	-3%	-5%	-11%
Cc1sc2nc(CSC(C)C(=O)Nc3ccc(Cl)cn3)[nH]c(=O)c2c1C (stereo not drawn)	0%	-5%	-16%
CCC1CCCCN1CC(=O)Nc1cc(OC)c(OC)cc1C#N (stereo not drawn)	-13%	-1%	13%
Cc1ccc(NC(=O)COC(=O)Cn2ccc(C(F)(F)F)n2)cc1Cl	-8%	-2%	8%
CCN(CC)C(=O)c1nc[nH]c1C(=O)N1CCc2ccccc2C1	14%	5%	-14%
COc1ccc(/C=N/NC(=O)C(C)N(c2ccc(OC)cc2)S(C)(=O)=O)cc1 (stereo not drawn)	-8%	1%	35%[activator]
COc1ccc([C@H]2CC(=O)C=C(c3ccccc3C(F)(F)F)C2)cc1	6%	-3%	-11%
CC(C)(C)OC(=O)N[C@@H](C(=O)OC(C)(C)C)c1ccc2c(c1)OCO2	3%	-1%	-8%
Cc1cc(=O)cc(C)n1-c1ccc(F)cc1F	-5%	1%	-8%
Cc1ccc(SCCC(=O)OCC(=O)Nc2ccc(C(N)=O)cc2)cc1	2%	1%	-6%
Cc1ccc(OCc2n[nH]c(=S)n2-c2ccc(Br)cc2)cc1	7%	-1%	-23%
O=C(Cc1ccc(-n2c(=O)c3ccccc3n(CC(=O)Nc3ccc(F)cc3F)c2=O)cc1)NCc1ccco1	-11%	0%	-14%
CCN(Cc1ccc(N(C)C)cc1)C(C)C(=O)Nc1ccc(S(=O)(=O)N2CCCC2)cc1 (stereo not drawn)	6%	-9%	-4%
COc1ccc(OCC(=O)NCCCNC(=O)COc2ccc(OC)cc2)cc1	2%	8%	-10%
CSCCC(NC(=O)c1cccc(C)c1)C(=O)NCc1cccs1 (stereo not drawn)	-3%	2%	3%
OCC[C@H]1C[C@@H](O)[C@H](O)[C@@]2(OCCc3ccccc32)O1	-16%	-5%	4%
CCN(CC(=O)Nc1ccc(NC(C)=O)cc1)C(=O)c1cc2c(s1)CCCCC2	-3%	1%	10%
C=C1C[C@@]23CCC4[C@@](C)(CCC[C@@]4(C)C(=O)O)C2CC[C@]1(O)C3 (stereo partly drawn)	10%	2%	-20%
Cc1c(C(=O)Nc2ccccc2)sc2nc3n(c(=O)c12)CCCCC3	14%	-2%	44%[activator]
CN(C)C(=O)CCc1ccc2c3c([nH]c2c1)[C@]1(C)[C@@H](C(=O)N2CCOCC2)C[C@H](CC(=O)NC(C)(C)C)C(=O)N1CC3	-6%	24%	-5%
O=C1CCCN1C(=O)CSc1nnnn1-c1ccccc1	-15%	-2%	25%
COc1ccc(C2=CC(=O)C[C@H](c3ccc(Cl)cc3)C2)cc1	-13%	8%	-19%
CCCc1cc(=O)[nH]c(SCC(=O)Nc2ccc(Cl)c(S(=O)(=O)N3CCOCC3)c2)n1	0%	6%	15%
CCCNC(=O)C(Cc1ccc(F)cc1)NC(=O)c1ccc(C#N)cc1 (stereo not drawn)	8%	-5%	-9%
COc1ccccc1CNC(=O)C1CC2Cn3c(nc4cc5ccccc5cc43)C2N1C (stereo not drawn)	-1%	-5%	-24%
C[C@H](O)Cc1cc2ccccc2c(=O)o1	-14%	-5%	-14%
CC(=O)N1CCN(C(=O)c2cc(C)oc2C)CC1	-3%	4%	-8%
CC#CCN1C=C(C(=O)OCC)C(C)N(Cc2ccc(Br)cc2)S1(=O)=O (stereo not drawn)	0%	-41%	-8%
COc1ccc(CCC(=O)Nc2cc(S(=O)(=O)N3CCCCC3)ccc2N(C)C)cc1	-4%	2%	8%
CN(c1ccccc1)S(=O)(=O)c1ccc(C(=O)NNC(=O)c2ccccc2)cc1	-8%	2%	-6%
O=C(Oc1ccc(/C=N/NC(=O)c2ccco2)cc1)c1ccccc1	2%	-6%	36%[activator]
CC(C)(C)OC(=O)C[C@H]1C/C=C\C[C@@H](CC(=O)N[C@@H](CO)Cc2ccccc2)C(=O)N2CCC[C@@H]2COC1=O	-4%	-15%	4%
O=C(Nc1cccc(S(=O)(=O)N2CCCC2)c1)c1cc(=O)[nH]c2ccccc12	12%	3%	-9%

Other entries follow:
SMILES	RE007 growth inh	SARS PLpro yeast	2A StopGo
CCN(CC)S(=O)(=O)c1ccc(N2CCOCC2)c(NC(=O)C(C)Oc2ccc(F)cc2)c1 (stereo not drawn)	-10%	-2%	-11%
Cc1nn(Cc2ccccc2)c(Cl)c1/C=C/C(=O)OC(C(=O)NC(N)=O)C(C)C (stereo not drawn)	23%	1%	?
CCCCCCC[C@@H](C/C=C/CCC(=O)O)OC	3%	-3%	-11%
CCc1ccc(-c2csc(NC(=O)C3=COCCO3)n2)cc1	?	-3%	20%
CS(=O)(=O)c1cccc(C(=O)OCCCC(=O)c2ccccc2)c1	5%	-1%	18%
Cc1ccc(OCCCC(=O)ON=C(N)c2ccccc2C)cc1	-2%	-5%	-16%
CCn1cc(C(=O)N2CCN(c3ccc([N+](=O)[O-])cc3)CC2)c(=O)c2ccc(C)nc21	-5%	1%	-27%
CCOc1ccc(C(=O)OCC(=O)Nc2ccc3c(c2)OCCO3)cc1OC	1%	9%	-8%
Nc1nc(Cl)cc(Oc2ccc(Cl)cc2)n1	-6%	0%	11%
Cc1cc(C)cc(C(=O)NCC(=O)OC(C)C(=O)N(C)c2ccccc2)c1 (stereo not drawn)	2%	1%	8%
CC(=O)OCC1(C)CN(c2ccccc2)N(C(C)=O)C1=O (stereo not drawn)	-6%	0%	3%
O=C(O)c1cc(-c2ccccc2)nc(-c2ccccc2)c1	2%	-6%	-16%
c1ccc(CCC2Cc3ccccc3N2)cc1 (stereo not drawn)	-15%	8%	34%[activator]
COc1cc(NC(=O)COC(=O)CO/N=C(\C)c2ccc3c(c2)OCO3)cc(OC)c1	-6%	6%[6.58 µM]	-15%
C=CCC[C@H](Cc1ccc(F)cc1)C(=O)OC[C@H]1CCCN1C(=O)[C@@H](CC=C)CC(=O)NCCO	2%	-6%	-30%
Cc1ccc(CN2C(=O)C(C)Nc3ncnc(N4CCN(c5ccccn5)CC4)c32)cc1 (stereo not drawn)	-25%	0%	-7%
CCCCCCCCN1N=N[C@H]2[C@H]1[C@@H]1C[C@H]2N(C(=O)OC(C)(C)C)O1	0%	8%	0%
C(/CCc1ccccc1)=N\Nc1nc2ccccc2[nH]1	14%	-2%	8%
O=C(CN1C(=O)NC2(CCCCC2)C1=O)Nc1cccc(Cl)c1Cl	-6%	-1%	-5%
COC(=O)C1SCC2C(=O)N(Cc3cccc(C)c3)CC(=O)N21 (stereo not drawn)	-6%	4%	1%
Cc1c(C(C)CCCO)oc(=O)c2c1Oc1c(C)c(C(C)C[C@H](C)O)oc(=O)c1C2 (stereo partly drawn)	-2%	-1%	-2%
C[C@H](CO)N1C[C@H](C)[C@@H](CN(C)C(=O)NC2CCCCC2)Oc2ccc(NS(=O)(=O)c3ccc(F)cc3)cc2C1=O	-8%	6%	14%
CC(C)=CCC[C@](C)(O)C1CC[C@]2(C)C1[C@H](O)CC1[C@@]3(C)CC[C@H](O[C@@H]4O[C@H](CO)[C@@H](O)[C@H](O)[C@H]4O[C@@H]4O[C@H](CO)[C@@H](O)[C@H](O)[C@H]4O)C(C)(C)C3CC[C@]12C (stereo partly drawn)	-21%	-2%	-13%
CCOc1ccc(CN(C)C(=O)CCNC(=O)c2ccco2)cc1	-4%	2%	2%
O=C1N[C@@H](c2ccccc2)COC(=O)[C@H](Cc2ccc(F)cc2)CC/C=C/C[C@H]1CC(=O)N(CCO)Cc1ccccc1	-1%	-2%	-25%
O=C(COC(=O)c1ccc(S(=O)(=O)N2CCCC2)cc1)Nc1cccc(Cl)c1	-12%	3%	-23%
O=C(COc1ccccc1F)Nc1ccccc1C(=O)NC1CC1	-5%	5%	-11%
COc1ccc([C@@H]2CC=C(C(=O)O)[C@H](c3cccc(Cl)c3)N2S(=O)(=O)c2ccc(C)cc2)cc1OC	-8%	10%	30%[activator]
Cc1ccc(C(=O)N/C(=C/c2cccs2)C(=O)N2CCCCC2)cc1	2%	-3%	51%[activator]
CCOc1cc(C(=O)Nc2cc(F)ccc2C)ccc1OCC(=O)N1CCOCC1	5%	2%	-4%
CSC1=NCCN1S(=O)(=O)c1ccc(F)cc1	-8%	-2%	-3%
COc1cc([N+](=O)[O-])ccc1NC(=O)C1CCCN(S(C)(=O)=O)C1 (stereo not drawn)	10%	1%	-16%
N#Cc1c(-c2ccccc2)nc(-c2ccncc2)[nH]c1=O	-3%	0%	4%
O=C(CCc1nc2ccccc2c(=O)[nH]1)Nc1cc(C(F)(F)F)ccc1N1CCCC1	6%	15%	-12%

An excerpt; the hit share may differ from the screen's.
